# Screening results: PubChem BioAssay, several laboratories
# Kir21 inh: blocks the mouse Kir2.1 inward-rectifier potassium channel; hit rate 0.85% among 310,000; AID 1672; HEK293-Kir2.1, FluxOR thallium flux fluorescence; active compounds read low; P35561; B-score at 10 µM;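 active means fluorescence ratio B-score at or below minus 3 SD of library scores, with starting-brightness B-score within 2 SD, cut at about -4.2 in these data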;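 further: channel flux triggered by added potassium and thallium sulfate stimulus; B-score of peak minus minimum fluorescence over baseline after thallium stimulus; more negative B-score means stronger Kir2.1 block with less thallium influx; some compounds called inactive have numbers as strong as hits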
# Target sequence (P35561 whole entry, looked up): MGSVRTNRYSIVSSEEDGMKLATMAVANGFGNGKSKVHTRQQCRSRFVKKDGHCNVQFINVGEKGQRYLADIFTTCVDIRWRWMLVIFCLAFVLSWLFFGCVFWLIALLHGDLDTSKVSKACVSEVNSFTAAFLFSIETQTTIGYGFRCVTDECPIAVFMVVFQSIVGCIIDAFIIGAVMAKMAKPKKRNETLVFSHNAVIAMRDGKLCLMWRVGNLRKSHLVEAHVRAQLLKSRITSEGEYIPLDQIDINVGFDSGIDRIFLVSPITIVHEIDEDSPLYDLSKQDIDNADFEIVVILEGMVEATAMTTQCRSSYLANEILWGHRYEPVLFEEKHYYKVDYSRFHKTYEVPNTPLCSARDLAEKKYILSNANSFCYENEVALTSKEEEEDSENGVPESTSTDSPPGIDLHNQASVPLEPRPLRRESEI
# STK33 inh: inhibitors of human STK33 kinase; Q9BYT3; purified STK33, MBP phosphorylation, ADP-Glo luminescence; inhibition, % at 10 µM; hit rate 0.073% among 320,000; AID 2661;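 active means inhibition at or above 25%, using the most active replicate where run in duplicate; inactive means inhibition below 25%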
# Target sequence (Q9BYT3 whole entry, looked up): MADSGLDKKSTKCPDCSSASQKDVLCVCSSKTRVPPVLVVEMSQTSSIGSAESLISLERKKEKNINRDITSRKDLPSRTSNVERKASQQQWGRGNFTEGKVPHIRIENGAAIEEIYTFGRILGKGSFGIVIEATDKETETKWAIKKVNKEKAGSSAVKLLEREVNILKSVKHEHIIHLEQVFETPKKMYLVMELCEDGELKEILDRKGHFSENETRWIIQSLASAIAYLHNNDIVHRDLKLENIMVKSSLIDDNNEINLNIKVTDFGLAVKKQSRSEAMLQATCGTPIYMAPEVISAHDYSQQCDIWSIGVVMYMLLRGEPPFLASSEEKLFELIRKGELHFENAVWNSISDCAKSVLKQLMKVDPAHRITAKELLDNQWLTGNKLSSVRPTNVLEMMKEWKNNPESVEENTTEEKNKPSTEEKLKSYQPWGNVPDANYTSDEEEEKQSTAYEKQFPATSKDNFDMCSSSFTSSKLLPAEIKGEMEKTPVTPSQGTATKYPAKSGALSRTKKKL
# Numbers without * were called inactive; nt = no result given. This is a subset, and most or all hits are left out here.
SMILES,Kir21 inh,STK33 inh
Cc1ccc(C(=O)NCC(=O)NCc2cc(=O)n(C)c(=O)n2C)cc1,1.55,-0.1
COC(=O)c1ccc(COC(=O)c2ccc(CS(=O)(=O)c3ccc(C)cc3)cc2)cc1,-0.16,0.4
c1ccc(-c2cnc(-c3ccccc3)nn2)cc1,-0.58,0.7
CC(O)c1c(-c2ccccc2)nn(C)c1Cl (configuration not stated),2.84,-1.0
CCOC(=O)c1cccc(NC(=O)C2CCCN(S(=O)(=O)c3cnc[nH]3)C2)c1 (configuration not stated),-0.1,0.3
O=C1SCCC1NS(=O)(=O)c1ccc([N+](=O)[O-])cc1 (configuration not stated),-2.29,3.6
COCCCn1cnc2oc3nc4ccccc4nc3c2c1=O,-0.68,-1.0
CCc1ccc(N=c2c([N+](=O)[O-])nn(-c3ccc4c(c3)OCCO4)n2O)cc1,2.41,3.7
CCOC(=O)COc1cnc2ccccc2n1,-1.84,-0.7
Cc1c(NC(=O)C(C)OC(=O)c2ccc([N+](=O)[O-])s2)c(=O)n(-c2ccccc2)n1C (configuration not stated),-0.11,-1.1
COc1ccc(S(=O)(=O)N2CCN(C(=S)NCCc3ccccc3)CC2)cc1,1.19,-0.3
CCCCCn1c(=O)[nH]c2cc(C(=O)NCc3ccccn3)ccc2c1=O,-0.64,-0.5
Nc1nnc(SCc2ccc(F)cc2)n1-c1ccccc1,-0.07,0.1
CN(C)c1ccc(/C=C(/NC(=O)c2ccccc2)C(=O)N/N=C/c2ccc([N+](=O)[O-])c(O)c2)cc1,1.25,-1.4
Cc1nn(C)c(C)c1CN(C)C(=O)CCCC(=O)O,-0.41,-1.1
CN1CCc2c(sc3nc(NCCO)n(-c4cccc(Cl)c4)c(=O)c23)C1,-0.79,0.8
Cn1c(CCC(=O)Nc2ccc(N3CCOCC3)cc2)nc(=O)c2ccccc21,2.03,0.8
CCOC(=O)NC(=O)/C(N=Nc1cc(C)cc(C)c1)=C(\C)O,-0.77,-1.9
CCCOc1ccc(N2C(=O)CC(N3CCN(c4ccccc4OC)CC3)C2=O)cc1 (configuration not stated),1.79,0.7
COc1ccccc1NC(=O)c1cc(C(=O)O)ccc1C(=O)O,-1.46,-1.5
O=C1CC2(CCN(C(=O)c3ccc(F)cc3)CC2)Oc2ccccc21,-0.7,-1.6
CC(C)C(NS(=O)(=O)c1cccc2nsnc12)C(=O)NCc1ccco1 (configuration not stated),0.77,0.0
Cc1ccc(COc2ccc(-c3nnco3)cc2)cc1,0.02,-0.2
Cc1ccccc1N1C(=O)CC(Nc2ccc3c(c2)OCO3)C1=O (configuration not stated),1.76,-1.2
Cc1cc(C)n(Cc2cccc(F)c2)c(=O)c1C#N,0.24,-1.1
CC(C)(C)OC(=O)N1CCC(C(=O)NCC2CCCO2)CC1 (configuration not stated),0.44,-1.0
O=C(CCNC(=O)OCc1ccccc1)NC1CCCCCC1,2.17,-0.7
CCc1ccc(NC(=O)CSc2nc3ncc(Br)cc3[nH]2)cc1,1.01,-1.3
COc1ccc(C(=O)Nc2ccc(CN3CCOCC3)cc2)cc1,-3.6,-1.5
CN(Cc1ccccc1)S(=O)(=O)c1ccc(OCC(=O)Nc2cccc([N+](=O)[O-])c2)cc1,1.03,-0.9
COc1cccc(NC(=O)[C@H](Cc2ccccc2)NC(=O)[C@@H]2Cc3ccccc3CN2)c1,-0.01,0.2
CCOc1ccc(C2c3c(oc4cc(C)c(C)cc4c3=O)C(=O)N2CCCN(C)C)cc1OC (configuration not stated),2.06,-1.1
C=CCn1cccc(C(=O)Nc2ccc(C)c(Cl)c2)c1=O,-1.31,-1.7
Cc1ccc(S(=O)(=O)N2CCOCC2)cc1NC(=O)COC(=O)Cc1ccsc1,-0.26,-0.9
CC1(C)CC(=O)c2cc(C(=O)NC3CCSC3=O)c(=O)n(-c3ccccc3)c2C1 (configuration not stated),-0.12,-1.1
O=C(c1ccc([N+](=O)[O-])cc1)N1CCN(Cc2ccccc2)CC1,0.25,-0.5
COc1cc2[nH]c3c(=O)n(CCN4CCCCC4)cnc3c2cc1OC,3.62,0.2
O=C(Nc1ccccc1)N(Cc1cccnc1)Cc1ccco1,-1.92,-1.0
O=C(Cc1ccc(Cl)cc1Cl)OCC(=O)N1CCCCC1,2.09,-0.7
c1ccc(-c2oc3ncnc(NCCN4CCOCC4)c3c2-c2ccccc2)cc1,-0.31,3.3

# Three of the compounds above, with tabs.
Structure	Kir21 inh	STK33 inh
COc1cccc(NC(=O)[C@H](Cc2ccccc2)NC(=O)[C@@H]2Cc3ccccc3CN2)c1	-0.01	0.2
O=C(Nc1ccccc1)N(Cc1cccnc1)Cc1ccco1	-1.92	-1.0
CCOc1ccc(C2c3c(oc4cc(C)c(C)cc4c3=O)C(=O)N2CCCN(C)C)cc1OC (configuration not stated)	2.06	-1.1

# (listing goes on)
SMILES,Kir21 inh,STK33 inh
CCCCCOC(=O)c1c(N)n(CCOC)c2nc3ccccc3nc12,1.57,0.7
CC(=O)NCCC(=O)Nc1ncc(S(=O)(=O)c2ccc([N+](=O)[O-])cc2)s1,0.78,-0.9
COc1ccc(CCN(C)C(=O)COc2ccc(C(=O)c3ccccc3)cc2)cc1OC,3.24,-0.5
COc1ccc(NC(=S)NNC(=O)C2CC2c2ccc(C)cc2)cc1 (configuration not stated),-0.03,-0.8
CS(=O)(=O)c1ccc2sc(NC(=O)c3cc4ccccc4o3)nc2c1,0.76,2.3
COc1cccc(NC(=O)Nc2ccccc2Br)c1,-0.84,2.5
C[C@H]1C(=O)N(C)CCN1C(=O)c1cccc(OC2CCN(CC(C)(C)C)CC2)c1,-0.97,-1.9
CC1=[N+](C)N(c2ccccc2)C(=O)C1N=Cc1ccc(Cl)cc1 (configuration not stated),1.89,-2.8
COc1ccc(-c2nc3ccc(N4CCN(C)CC4)cc3c(=O)[nH]2)cc1,0.08,0.3
CCCCC/C=N/NC(=O)c1[nH]c2ccc([N+](=O)[O-])cc2c1C,0.01,-1.2
O=c1c2ccccc2nnn1CSc1ccc2c(c1)OCCO2,-0.81,1.6
NC(=O)c1c(NC(=O)c2ccncc2)sc2c1CCCCCC2,1.83,2.1
CC(NC=C1C(=O)OC(C)(C)OC1=O)C(=O)O (configuration not stated),-0.85,0.5
COc1ccc(C(CNC(=O)c2ccc(Br)o2)N2CCN(C)CC2)cc1 (configuration not stated),0.81,-0.9
CC(C)(C)NS(=O)(=O)c1ccc(NC(=O)CS(=O)(=O)Cc2ccccc2)cc1,0.97,-0.1
O=C(Cc1ccccc1)NCC(=O)N/N=C/c1cccs1,-0.27,1.5
Cc1cc(C)n(CC(=O)Nc2cccc(C(F)(F)F)c2)n1,0.01,-2.2
Cc1ccc(C2CC(c3cccs3)n3nc(N)nc3N2)cc1 (configuration not stated),-0.96,0.2
Cc1c(NC(=O)C2(c3ccccc3)CCCC2)c(=O)n(-c2ccccc2)n1C,1.39,0.3
CCC1CCCCN1CCCNC(=O)c1csc2c1CCCCC2 (configuration not stated),-0.07,-0.4

# Reprinted from the part before: four compounds; new compounds follow.
SMILES,Kir21 inh,STK33 inh
Cc1cc(C)n(CC(=O)Nc2cccc(C(F)(F)F)c2)n1,0.01,-2.2
Cc1ccc(C2CC(c3cccs3)n3nc(N)nc3N2)cc1 (configuration not stated),-0.96,0.2
Cc1c(NC(=O)C2(c3ccccc3)CCCC2)c(=O)n(-c2ccccc2)n1C,1.39,0.3
CCC1CCCCN1CCCNC(=O)c1csc2c1CCCCC2 (configuration not stated),-0.07,-0.4
CCOC(=O)c1cc(C(=O)c2cc(F)ccc2O)coc1=N,0.53,-0.3
Cc1ccc(Nc2nc(N)c([N+](=O)[O-])c(NCc3ccco3)n2)cc1C,0.96,1.0
Cc1ccccc1OCC(=O)Nc1ccc(N2CCN(C(=O)C(C)C)CC2)c(Cl)c1,-0.2,-0.9
COc1ccccc1-c1ccc(SCc2cccc(F)c2)nn1,0.91,-0.6
Cn1cnnc1SCC(=O)c1c(N)n(Cc2ccccc2)c(=O)n(C)c1=O,2.98,0.1
CCOc1cccc(OCCCCN2CCOCC2)c1,-0.13,-1.5
Cc1ccc(S(=O)(=O)N(CC(=O)NCc2ccncc2)C2CCCCC2)cc1,-2.28,-1.2
COc1cc(OC)cc(C(=O)N[C@H](C(=O)Nc2nc3c(s2)CCCC3)C(C)C)c1,1.4,0.1
COc1cc(NC(=O)CSc2nccc(C)n2)c(C)cc1[N+](=O)[O-],0.92,-0.6
COc1ccc2cnnc(SCC(=O)Nc3ccc(C(=O)O)cc3)c2c1OC,0.71,2.2
CCN1CCN(CC(=O)Nc2ccc(S(=O)(=O)N3C(C)CCCC3C)cc2)CC1 (configuration not stated),0.52,3.4
O=C1Cc2cc(NS(=O)(=O)c3ccc(F)cc3)cc3c2N1CCC3,0.16,-2.3
CCOC(=O)N1CCC(Nc2ncnc3c2cnn3-c2ccc(Cl)cc2)CC1,1.6,nt
CSCCC(NC(=O)c1ccccc1)C(=O)N/N=C(\C)c1ccccc1 (configuration not stated),1.4,-2.4
COc1ccc2nc(Nc3nc(-c4cc5ccccc5oc4=O)cs3)sc2c1,-0.58,-0.9
COc1ccc(C(=O)Nc2ccc(CN3CCOCC3)cc2)cc1Br,-5.26*,0.4
O=C(CCC(NC(=O)OCc1ccccc1)C(=O)OCC(=O)N1CCCCC1)OCC(=O)N1CCCCC1 (configuration not stated),-1.75,-0.6
c1ccc(-c2csc(Nc3cccnc3)n2)nc1,1.73,2.2
O=C(O)c1cccnc1SCC(=O)N1CCCc2ccccc21,0.03,0.3
Cc1ccc(NCc2nnc(SC(C)C(=O)N/N=C/c3ccc(C)o3)n2-c2ccccc2)cc1 (configuration not stated),0.12,-1.5
Cc1cc(C)c(C(=O)COC(=O)CCn2c(C)csc2=O)cc1C,-4.47*,-1.4
c1ccc(Cn2nnnc2CN2CCOCC2)cc1,1.08,-0.5
CCn1c(=O)cc(N2CCOCC2)[nH]c1=O,-0.85,-0.4
COc1cccc(C(=O)Nc2ccccc2N2CCOCC2)c1,-0.41,-0.4
O=C(NC1(C(=O)NC2CCCCC2)CCCCC1)c1ccccn1,-0.44,-0.6
COc1ccc(S(=O)(=O)N2CCC(C(=O)Nc3cccc(C(C)=O)c3)CC2)cc1C,-0.08,-0.1
COc1ccc(NC(=O)CS(=O)c2ccc(Cl)c(Cl)c2)cc1 (configuration not stated),0.42,-0.1
O=C(Cn1nnc2ccccc2c1=O)NCc1ccc(Cl)cc1,0.23,-1.3
O=C(N/N=C/c1cccnc1)c1ccccc1NS(=O)(=O)c1cccs1,-0.1,-0.5
COC(=O)c1cccnc1NC(=S)NC(C)C,0.88,-0.3
COc1cc(OC)cc(C(=O)NNC(=O)CCc2ccccc2)c1,0.32,-1.2
COC(=O)c1sc2nc(-c3ccccc3)c3c(c2c1N)CCCC3,-0.25,-0.4
CC(C)N1CCC(N2CCN(Cc3ccc(-c4ccc(Cl)cc4)o3)CC2CCO)CC1 (configuration not stated),-0.11,-1.6
COC(=O)c1ccc(Cn2cnc3c(cnn3-c3ccc(Cl)cc3)c2=O)o1,-0.89,-2.2
Cn1c(COc2ccc([N+](=O)[O-])cc2)nnc1SCC(N)=O,-0.09,-1.3
CC(C)N(C)CCOC(=O)C1COc2ccccc2O1 (configuration not stated),0.5,-0.5
CCn1c(/C=C/c2ccccc2C)nc2ccccc2c1=O,1.69,0.0
O=S(=O)(/C=C/c1ccccc1)N1CCN(c2ccccc2)CC1,0.36,-2.0
COc1ccc(-c2c(C)nn3c(Cl)c(C)c(C)nc23)cc1,-0.11,1.1
O=C1CCCN1c1ccc(N2CCCC2=O)cc1,-0.76,-18.8
CCN(CC)S(=O)(=O)c1ccc(C)c(NC(=O)CN2C(=O)NC3(CCCC3)C2=O)c1,-1.99,-0.2
COc1ccc(CNC(=O)C2CCN(S(C)(=O)=O)CC2)c(OC)c1,-0.56,0.5
O=C(COC(=O)CNC(=O)c1ccccc1F)NCC(F)(F)F,-0.49,-0.1
O=C(Nc1sc2c(c1C(=O)O)CCCC2)c1ccc(F)cc1,1.94,-0.8
COc1ccc(/C=N/NC(=O)c2ccc(Cl)cc2)cc1COC(C)=O,0.09,-2.0
CC(=O)Nc1cccc(NC(=O)CSc2nnc(NC(=O)c3ccco3)s2)c1,0.85,1.6
Cc1ccc(NC(=O)c2ccccc2NS(=O)(=O)c2ccc(Cl)s2)cc1S(=O)(=O)N1CCOCC1,-0.19,0.1
CCNC(=O)c1ccc2c(c1)S(=O)(=O)c1ccccc1C2=O,-0.49,-0.4
COc1cccc(NC(=O)CSc2nc3ccccc3c(=O)n2Cc2cccs2)c1,-1.06,-0.8
COc1ccc(-n2c(=O)c3ccccc3c3ccccc3c2=O)c(OC)c1,0.29,-1.6

# Structural class, those above containing a CF3 group.
SMILES,Kir21 inh,STK33 inh
Cc1cc(C)n(CC(=O)Nc2cccc(C(F)(F)F)c2)n1,0.01,-2.2
O=C(COC(=O)CNC(=O)c1ccccc1F)NCC(F)(F)F,-0.49,-0.1

# More entries.
SMILES,Kir21 inh,STK33 inh
N=c1c2ccccc2nnn1-c1cccc(C(F)(F)F)c1,1.01,-1.6
CCn1c(SCC(=O)Nc2cccc(F)c2)nnc1-c1cc2cc(Br)ccc2o1,1.25,-0.1
O=C(Nc1ccc(S(=O)(=O)N2CCCC2)cc1)C1COc2ccccc2O1 (configuration not stated),-1.41,-1.0
COc1ccccc1CNS(=O)(=O)c1cc(CN2C(=O)c3cccnc3C2=O)ccc1OC,0.03,-1.2
Cc1ccc(CC(=O)Nc2cccc(C#N)c2)cc1,1.6,0.8
CC(=O)Oc1ccc(-c2cccc(C(=O)OCC(=O)Nc3ccccc3Oc3ccccc3)c2)cc1,0.15,-3.5
CNC(=S)N1N=C(c2ccc(C)cc2)CC1c1ccc(OC)c(OC)c1 (configuration not stated),-1.68,-0.7
Nc1ccc(C(=O)OCC(=O)Nc2cc([N+](=O)[O-])ccc2F)cc1,1.2,1.5
CCOC(=O)N1CCN(Cc2cc(=O)oc3ccc4ccccc4c23)CC1,-0.95,-1.4
